ALR inh – inhibitors of human ALR sulfhydryl oxidase, primary screen, biochemical, H2O2 detection, HRP-luminol luminescence, single point | FAD-linked sulfhydryl oxidase ALR (Homo sapiens), P55789 | purified ALR, DTT oxidation | inhibition, % (concentration not given with the values) | 3.8% of 290,000 active | AID 485317, 2010;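 active means mean and each replicate at 75% or more; inconclusive means only one of the two met; inactive means neither met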;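 further: stock transfer was 7.5 nL into about 7.5 µL; 0% = neutral wells and 100% = wells with inactivated enzyme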
Target sequence (P55789 whole entry, looked up): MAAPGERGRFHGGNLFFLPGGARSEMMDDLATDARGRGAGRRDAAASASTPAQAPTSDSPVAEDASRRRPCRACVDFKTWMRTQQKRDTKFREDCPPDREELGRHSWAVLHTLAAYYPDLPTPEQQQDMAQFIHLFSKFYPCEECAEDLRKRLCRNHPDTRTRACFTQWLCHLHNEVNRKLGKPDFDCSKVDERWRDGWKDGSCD
FGF22 binding – binders of human FGF22 protein, primary screen, FGF22 synaptogenesis inhibitor project, biophysical, thermal shift, single point | Fibroblast growth factor 22 (Homo sapiens), Q9HCT0 | recombinant FGF22 thermal shift, SYPRO orange fluorescence; percent of sucrose octasulfate shift, DMSO zero | calls only at 9.99 µM | 1.5% of 340,000 active;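 active means melting point raised past a set limit in the mean and every replicate; inconclusive means no clear call; three in four hits are not shown here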
Target sequence (Q9HCT0 whole entry, looked up): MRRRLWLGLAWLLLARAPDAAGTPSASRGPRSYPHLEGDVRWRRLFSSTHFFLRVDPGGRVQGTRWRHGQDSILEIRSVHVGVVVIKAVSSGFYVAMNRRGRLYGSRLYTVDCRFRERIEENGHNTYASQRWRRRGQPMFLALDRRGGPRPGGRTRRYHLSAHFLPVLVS
AF4-AF9 inh – inhibitors of AF4 peptide binding to AF9, primary screen, biochemical, AlphaScreen, biotin-AF4 peptide, FLAG-AF9, single point | inhibition, % at 10 µM | 0.47% of 350,000 active | AID 651704, 2012;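 active means every replicate reaching a set inhibition limit, whatever the replicate mean, cut at about 25% in these data; inconclusive means mean inhibition reaches that limit but some replicates miss it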;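 further: 0% = plate neutral control median and 100% = total signal loss; the record names both 10 and 1 µM as test concentration; the first replicate is given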
HNF4A DNA FP – change in binding of human HNF4A to DNA, primary screen, biochemical, fluorescence polarization, FITC-DNA; 1 h; activity change, % at 10 µM; 0.3% of 360,000 active; in the data active means activity change above about 30%, passing the limit was not always enough;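 further: controls were the assay level and a saturating level of protein; the project sought stronger binding though the title names inhibitors; some compounds called inactive have numbers as strong as hits; positive values seem to mean higher polarization but the record does not say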
Target sequence (P41235 whole entry, looked up): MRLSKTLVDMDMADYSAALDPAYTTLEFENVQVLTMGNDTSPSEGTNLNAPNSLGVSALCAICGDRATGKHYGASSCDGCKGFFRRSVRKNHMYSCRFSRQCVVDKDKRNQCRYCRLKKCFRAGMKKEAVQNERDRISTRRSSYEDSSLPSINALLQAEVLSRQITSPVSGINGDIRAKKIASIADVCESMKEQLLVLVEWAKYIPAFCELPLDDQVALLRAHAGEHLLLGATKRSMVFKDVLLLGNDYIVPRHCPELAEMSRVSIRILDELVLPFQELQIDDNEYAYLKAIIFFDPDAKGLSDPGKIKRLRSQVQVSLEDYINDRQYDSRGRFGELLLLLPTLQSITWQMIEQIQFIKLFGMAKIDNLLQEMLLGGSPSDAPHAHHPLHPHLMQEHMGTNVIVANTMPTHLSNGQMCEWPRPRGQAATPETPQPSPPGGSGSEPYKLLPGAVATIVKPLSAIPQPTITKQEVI
rRNA inh HTS – reduced GFP signal of wild-type E. coli, primary screen, bacterial rRNA inhibitor project, GFP/RFP fluorescence, OD600, single point. GFP signal change (wild-type ribosome), % (test concentration not listed). E. coli WT GFP vs humanized-ribosome RFP mutants, 24 h; hits give low values; DMSO median 0, no signal -100. 1.6% of 350,000 active;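 active means significant combined selectivity score with lowered wild-type GFP, culture density cut under 30%, mutant RFP and density less affected; inactive means any of these conditions unmet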; further: one replicate is shown; some compounds called inactive have numbers as strong as hits
Vif A3G – inhibitors of Vif binding to APOBEC3G peptide, primary screen, biochemical, TR-FRET, GST-Vif 1-94, biotin-A3G peptide, dose response retest (AID 1117319); Virion infectivity factor (Human immunodeficiency virus type 1 group M subtype B (isolate …; TR-FRET GST-Vif / biotin-A3G peptide binding; higher % means a stronger effect; test concentration not given here; strong numbers were not always called active; inhibition, %; hits with a dose series show IC50 in µM; 0.57% of 260,000 active;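 active means above the screen mean plus three standard deviations and confirmed in dose response; inconclusive means results disagree or hit not tested in dose response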;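 further: Vif residues 1-94 fused to GST binding biotinylated APOBEC3G peptide 110-148; 0% = full assay without inhibitor and 100% = GST in place of GST-Vif; retest series ran down from 100 µM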
Ecoli growth – E. coli growth inhibition, primary screen, OD600 | Escherichia coli growth, 23 h; hits give low values | OD600 absorbance (no concentration beside the values) | 0.21% of 330,000 active | AID 1053175, 2014;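 active means OD600 absorbance below the run mean of sample wells minus 3.6 SD, in any replicate, cut at about 0.56 in these data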;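 further: stock transfer was 300 nL into about 60 µL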
rRNA inh HTS OD600 – further read-out of rRNA inh HTS, marked with its call; OD600 change, %; measured here: OD600 growth;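 optical density of the mix in the first replicate; 0 = DMSO median and -100 = no signal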
rRNA inh HTS RFP – further read-out of rRNA inh HTS, marked with its call; RFP signal change, %; measured here: RFP humanized mutant strains;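 first replicate; 0 = DMSO median and -100 = no signal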
An asterisk follows results filed as active; i = inactive; u = inconclusive; x = no result given; + = active, no number.

SMILES	ALR inh	FGF22 binding	AF4-AF9 inh	HNF4A DNA FP	rRNA inh HTS	rRNA inh HTS OD600	rRNA inh HTS RFP	Vif A3G	Ecoli growth
O=C(Nc1c(F)cccc1F)c1ccc2c(c1)CCN2S(=O)(=O)c1ccccc1	-1.2	i	-3.3	-0.2	-1.8	11.9	29.5	x	0.659
Cc1cc(NC(=O)c2ccc(Cl)cc2Cl)no1	-3.5	i	2.6	4.9	5.8	10.1	1.4	x	0.693
CC1=C(C(=O)OCc2ccccc2)C(c2ccc(C#N)cc2)NC(=O)N1CCCC(=O)O (centres undefined)	0.5	i	3.4	1.2	-16.7*	-3.8*	6.8*	2.6%	0.7
O=C1CCCN2N=C(SCC(=O)Nc3nccs3)SC2=N1	-4.4	i	-0.4	-3.8	10.2	15.3	0.4	-13.2%	0.687
COc1ccc(NC(=O)CC(NCCc2ccccc2)C(=O)O)c(OC)c1 (centres undefined)	-23.4	x	x	3.6	x	x	x	11.2%	0.71
Cc1ccc(S(=O)(=O)N2CCCC(C(=O)NCc3cccnc3)C2)cc1Cl (centres undefined)	0.5	x	x	-2.4	x	x	x	3.1%	0.734
COc1cc(C)nc(SCC(N)=O)n1	-11.0	x	x	-1.7	-1.3	-2.2	-3.0	-2.2%	0.654
COc1ccc(N2CCN(C(=O)C(Cc3ccccc3)n3cccc3)CC2)cc1 (centres undefined)	x	i	16.6	2.2	2.1	-9.0	2.1	16.7%	0.764
COC(=O)c1cc(=O)c2ccc(OC)cc2o1	x	x	5.7	0.2	x	x	x	-5.9%	0.764
COc1ccc(N/N=C(\C#N)C(N)=O)cc1	98.3*	i	-5.9	3.5	9.4	7.9	2.0	x	x
COc1ccccc1N1CCN(/N=C/C=C\c2ccco2)CC1	41.7	x	x	1.6	x	x	x	u	x
N/C(=N\OC(=O)c1ccc(Cl)cc1Cl)c1ccccc1	-28.6	x	x	-2.9	x	x	x	2.6%	0.674
Cc1nn(C)cc1CN(C)Cc1c(C(=O)N(C)Cc2ccccc2)nc2ccccn12	4.4	i	-2.0	-0.5	14.4	8.6	2.9	-13.5%	0.665
CNC[C@@H]1Oc2c(NC(=O)c3ccncc3)cccc2C(=O)N([C@@H](C)CO)C[C@H]1C	x	i	-0.4	x	-2.4	6.2	-2.5	x	x
Cc1onc(-c2ccccc2Cl)c1C(=O)Nc1nc2c(s1)CCCC2	-4.7	x	x	-3.3	x	x	x	-9.2%	0.713
Cc1ccc(OCc2ccc(C(=O)N3CCCC3)o2)cc1C	-0.1	i	3.5	-1.7	-17.8	-26.4	-2.8	3.8%	0.627
CCCC1Cc2[nH]c(=O)c(C#N)cc2CO1 (centres undefined)	-12.5	i	-3.2	1.4	7.8	12.0	0.5	15.3%	0.679
Cc1cc(C)n2nc(C(=O)OCC(=O)N3CC(C)CC(C)C3)nc2n1 (centres undefined)	-3.4	i	-3.2	-2.4	11.8	10.6	1.4	-4.2%	0.727
COc1cc(/C=N/Nc2ccc(S(N)(=O)=O)cc2)cc(OC)c1OC	92.8*	i	3.4	0.0	-19.3	-18.7	-4.5	-6.2%	x
Cc1cc(NC(=O)CSc2ccc(-c3nc4cc(C)c(C)cc4[nH]3)cn2)no1	36.9	x	x	11.7	x	x	x	-8.7%	0.742
O=C(CN1CCN(S(=O)(=O)N2CCCCC2)CC1)Nc1ccc(Cl)c(Cl)c1	1.5	i	1.0	1.2	-27.3	-52.0	6.4	x	0.691
CCS(=O)(=O)c1ccc(NC(=O)c2ccccc2Cl)c(O)c1	10.3	x	x	1.1	x	x	x	6.9%	0.839
Nc1nc(N)c(N=O)c(Nc2cccc(Cl)c2)n1	x	i	5.8	-4.5	x	x	x	x	x
CCS(=O)(=O)Nc1ccc2c(c1)C(=O)N(C)[C@@H]1CC[C@@H](CC(=O)Nc3ccccc3)O[C@H]1CO2	x	i	1.3	x	0.8	1.7	-5.2	x	x
OC[C@@H]1[C@H](c2ccc(-c3ccccc3F)cc2)[C@H]2CN(Cc3cncnc3)CCCCN12	x	i	-1.6	x	3.0	14.0	-1.5	x	x
O=C(O)CSc1nc2ccc(C(=O)c3ccccc3)cc2[nH]1	50.9	i	-13.7	0.9	7.3	11.4	0.2	x	0.595
O=c1[nH]c(COc2ccc(Cl)cc2Br)nc2ccccc12	13.9	i	-1.0	3.1	-8.6	-20.6	-15.3	x	0.706
CN(CC(=O)Nc1ccc(Cl)cc1)C(=O)c1ccc(N2CCCC2=O)cc1	-0.9	i	-3.6	-3.3	-0.6	-0.7	-2.4	-6.5%	0.635
CCN(C(=O)COC(=O)CCOc1ccccc1C)c1c(N)n(Cc2ccccc2)c(=O)[nH]c1=O	x	i	12.9	-0.9	7.3	19.1	0.0	x	0.68
C[C@@H]1CN([C@@H](C)CO)C(=O)c2cc(NC(=O)NC3CCCCC3)ccc2O[C@H]1CN(C)C(=O)Nc1ccccc1	x	i	-5.5	x	-2.1	-4.1	-4.2	x	x
C[C@@H]1CN([C@H](C)CO)C(=O)c2cc(NC(=O)c3ccncc3)ccc2O[C@@H]1CN(C)Cc1ccc(C(=O)Nc2ccccc2N)cc1	x	i	-1.5	x	2.3	4.4	0.0	x	x
O=C(NCCCc1ccccc1)C1CC1	-2.7	i	-1.5	-0.9	x	x	x	x	0.636
O=C(Oc1ccc(O)cc1)C12CC3CC(CC(C3)C1)C2	28.5	i	-1.6	0.6	-19.0	-26.4	-0.8	6.5%	0.655
CCOC(=O)CNc1nc(Cl)nc(Nc2ccccc2)n1	8.0	x	-0.3	-2.2	14.4	11.3	0.9	16.4%	0.68
CCOC(=O)CSC1=C(C#N)C(c2ccc(OC)cc2)C2=C(CC(C)(C)CC2=O)N1 (centres undefined)	4.9	x	x	-0.5	x	x	x	14.0%	0.696
O=C(N[C@@H]1C=C[C@@H](CC(=O)N2CCCCC2)O[C@H]1CO)c1cccc(F)c1	x	i	0.3	x	0.3	2.9	-3.3	x	x

Looked up above:
In rRNA inh HTS OD600, `C[C@@H]1CN([C@H](C)CO)C(=O)c2cc(NC(=O)c3ccncc3)ccc2O[C@@H]1CN(C)Cc1ccc(C(=O)Nc2ccccc2N)cc1` is listed with 4.4
In ALR inh, `O=C(O)CSc1nc2ccc(C(=O)c3ccccc3)cc2[nH]1` is listed with 50.9
In HNF4A DNA FP, `O=c1[nH]c(COc2ccc(Cl)cc2Br)nc2ccccc12` is listed with 3.1
In rRNA inh HTS, `O=C(N[C@@H]1C=C[C@@H](CC(=O)N2CCCCC2)O[C@H]1CO)c1cccc(F)c1` is listed with 0.3
In AF4-AF9 inh, `OC[C@@H]1[C@H](c2ccc(-c3ccccc3F)cc2)[C@H]2CN(Cc3cncnc3)CCCCN12` is listed with -1.6
In rRNA inh HTS, `C[C@@H]1CN([C@@H](C)CO)C(=O)c2cc(NC(=O)NC3CCCCC3)ccc2O[C@H]1CN(C)C(=O)Nc1ccccc1` is listed with -2.1
In rRNA inh HTS OD600, `O=C(Oc1ccc(O)cc1)C12CC3CC(CC(C3)C1)C2` is listed with -26.4

Single records, as listed above.
Cc1cc(C)n2nc(C(=O)OCC(=O)N3CC(C)CC(C)C3)nc2n1 (centres undefined) across the screens: ALR inh: -3.4; FGF22 binding: i; AF4-AF9 inh: -3.2; HNF4A DNA FP: -2.4; rRNA inh HTS: 11.8; rRNA inh HTS OD600: 10.6; rRNA inh HTS RFP: 1.4; Vif A3G: -4.2%; Ecoli growth: 0.727
O=C(N[C@@H]1C=C[C@@H](CC(=O)N2CCCCC2)O[C@H]1CO)c1cccc(F)c1 across the screens: ALR inh: x; FGF22 binding: i; AF4-AF9 inh: 0.3; HNF4A DNA FP: x; rRNA inh HTS: 0.3; rRNA inh HTS OD600: 2.9; rRNA inh HTS RFP: -3.3; Vif A3G: x; Ecoli growth: x

Remaining list, next part:
SMILES	ALR inh	FGF22 binding	AF4-AF9 inh	HNF4A DNA FP	rRNA inh HTS	rRNA inh HTS OD600	rRNA inh HTS RFP	Vif A3G	Ecoli growth
CCCc1cc(Nc2ccccc2)n2ncnc2n1	-4.1	i	-3.6	0.8	10.0	6.0	0.8	x	0.709
CCOC(=O)/C(=C/Nc1ccc(F)cc1)[N+](=O)[O-]	-17.5	i	4.9	-2.4	x	x	x	u	0.661
CN1CCN(c2ccc(NC(=O)c3cc4ccccc4o3)cc2)CC1	-4.7	i	-0.6	0.3	-4.4	2.1	-2.3	x	0.67
O=C(NNC(=O)c1ccc2ccccc2c1)c1cccc(F)c1	x	i	-0.7	-4.0	-5.1	4.5	0.1	-6.8%	0.669
Cc1cc(C(=O)Nc2ccccc2C)c2ccccc2n1	-2.6	i	-1.4	-0.8	5.1	-4.0	0.7	x	0.723
O=C(C[C@H]1CC[C@H]2[C@@H](COC[C@H](O)CN2S(=O)(=O)c2ccccc2)O1)NCC1CCCCC1	x	i	33.4*	x	-3.4	7.0	2.0	x	x
C[C@H](CO)N1C[C@H](C)[C@@H](CN(C)C(=O)Nc2ccccc2F)Oc2ncc(-c3cccc(F)c3)cc2C1=O	x	i	-2.3	x	-4.1	-7.6	-0.9	x	x
COc1ccc(S(=O)(=O)N2CCOC23CCN(S(=O)(=O)c2ccc(F)cc2)CC3)cc1	4.5	i	-4.8	2.8	-7.6	0.8	1.3	3.6%	0.639
COCC(=O)N1[C@H](C#N)[C@H](c2ccc(-c3cccnc3)cc2)[C@@H]1CO	x	i	-0.1	x	0.9	8.6	-6.9	x	x
CC(=O)OC1CC2(C)/C(=N\O)CCC2C2CCc3cc(O)ccc3C12 (centres undefined)	9.0	i	-0.5	-1.3	-15.6	-18.9	1.0	-0.5%	x
COc1ccccc1OCCSc1nc2ccccc2n1CC(N)=O	4.1	i	-2.1	-1.8	1.3	5.1	-0.2	-4.3%	0.683
CSCCC(NC(=O)C1CCC(C)CC1)C(=O)N1CCN(c2ccccn2)CC1 (centres undefined)	2.0	x	x	-3.2	-27.8	-30.1	-11.8	-1.4%	0.686
O=C1CC(c2ccccc2)=NO1	x	i	1.0	1.1	4.7	3.0	1.6	-2.1%	0.71
Cc1ccc2nc(-c3ccc(Cl)cc3)c(Cc3cccc(Cl)c3)n2c1	x	i	1.8	2.2	-52.1	-64.7	-2.5	x	x
CC(C)(C)C(=O)Nc1ccc(N2CCN(c3ccc(C(F)(F)F)cn3)CC2)nc1	-0.1	i	-0.6	2.3	13.8	4.1	0.9	-16.1%	0.652
Cc1ccc(NC(=O)CN2C(=O)NC(Cc3c[nH]c4ccccc34)C2=O)cc1S(=O)(=O)N1CCCCC1 (centres undefined)	x	x	x	1.6	x	x	x	-1.6%	0.725
O=Cc1cn(-c2ccccc2)nc1-c1cc2c(ccc3ccccc32)oc1=O	-22.8	x	x	1.2	x	x	x	-2.3%	0.74
COc1ccc(C(C(=O)Nc2c(C)cccc2C)n2c(=O)c(-c3ccco3)nc3ccccc32)cc1 (centres undefined)	x	i	x	29.6	-1.6	4.1	2.9	x	x
OC[C@@H]1[C@H](c2ccc(-c3cccnc3)cc2)[C@@H]2CN(Cc3ccccn3)CCCCN12	x	+	-8.8	x	-1.1	-9.1	-0.4	x	x
COc1ccc2c(C(=O)c3ccc(Cl)cc3)n(CCCC(N)=O)[n+]([O-])c2c1	-14.6	i	-0.7	-4.5	-14.8	-13.6	2.2	x	x

Not all compounds are listed; the hit share may differ from the screen's.
